KCNQ2 block: KCNQ2 potassium channel inhibitors, primary screen, cell-based, CHO-K1, FluxOR thallium flux, B-score (AID 2156). B-score at 10 µM. 20 min; hits give low values; only compounds with negative scores are shown here; some inactives read as strong as hits. Potassium voltage-gated channel subfamily KQT member 2 (Rattus norvegicus), O88943. 310,000 tested, 1.1% active;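 active = fluorescence ratio B-score at most minus 3 library SDs, with starting brightness B-score within 2 library SDs, cut at about -5.5 in these data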
Target sequence (O88943 whole entry, looked up): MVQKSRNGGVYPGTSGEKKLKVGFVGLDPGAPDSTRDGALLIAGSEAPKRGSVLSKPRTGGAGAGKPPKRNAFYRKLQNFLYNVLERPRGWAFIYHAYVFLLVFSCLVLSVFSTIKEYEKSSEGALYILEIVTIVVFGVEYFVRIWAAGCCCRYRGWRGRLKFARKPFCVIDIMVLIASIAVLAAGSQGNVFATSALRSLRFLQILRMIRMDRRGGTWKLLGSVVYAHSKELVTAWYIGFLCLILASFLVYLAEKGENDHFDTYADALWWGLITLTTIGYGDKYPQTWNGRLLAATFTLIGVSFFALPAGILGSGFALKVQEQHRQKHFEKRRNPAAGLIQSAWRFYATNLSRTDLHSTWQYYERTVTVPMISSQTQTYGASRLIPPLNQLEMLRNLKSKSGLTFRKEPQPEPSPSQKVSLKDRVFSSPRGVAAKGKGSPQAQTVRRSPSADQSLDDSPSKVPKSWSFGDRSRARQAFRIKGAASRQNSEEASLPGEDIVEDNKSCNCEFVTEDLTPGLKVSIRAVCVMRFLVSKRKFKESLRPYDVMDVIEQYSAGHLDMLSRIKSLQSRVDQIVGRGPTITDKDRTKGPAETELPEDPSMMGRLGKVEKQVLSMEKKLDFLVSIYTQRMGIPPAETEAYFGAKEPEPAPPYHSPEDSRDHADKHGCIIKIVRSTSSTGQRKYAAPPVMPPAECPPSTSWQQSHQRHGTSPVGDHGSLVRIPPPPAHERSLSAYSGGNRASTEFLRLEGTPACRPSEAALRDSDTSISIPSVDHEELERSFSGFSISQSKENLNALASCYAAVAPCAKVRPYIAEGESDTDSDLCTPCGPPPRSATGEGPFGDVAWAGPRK
KCNQ2 block baseline: further read-out of KCNQ2 block, marked with its call; B-score; measured here: initial fluorescence intensity artifact check;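 brightness before thallium and not channel activity; 0 = typical well and far values either way flag optical interference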
* hit, by the source's call; i = inactive.

Start of the listing, in advance, three compounds:
SMILES | KCNQ2 block | KCNQ2 block baseline
CC(C)Cn1c(CCCNC(=O)c2ccco2)nc2ccccc21 | i | -0.19
O=C(Nc1ccccc1C(=O)NCC1CCCO1)c1ccccc1F (stereo not drawn) | i | 1.8
CCCCOc1ccc(/C=C/C(=O)N(CC)CC(=O)Nc2ccc3c(c2)OCCO3)cc1OC | i | 0.48

All compounds of this part, repeating the preview:
SMILES | KCNQ2 block | KCNQ2 block baseline
CC(C)Cn1c(CCCNC(=O)c2ccco2)nc2ccccc21 | i | -0.19
O=C(Nc1ccccc1C(=O)NCC1CCCO1)c1ccccc1F (stereo not drawn) | i | 1.8
CCCCOc1ccc(/C=C/C(=O)N(CC)CC(=O)Nc2ccc3c(c2)OCCO3)cc1OC | i | 0.48
CN(C)c1cccc(C(=O)NNC(=O)CSc2ccccc2)c1 | i | 0.17
Cc1cccc(C(c2c(C)nn(-c3ccccc3)c2N)c2c(C)nn(-c3ccccc3)c2N)c1 | i | 0.93
COc1ccccc1C(=O)NCCc1nc2ccccc2[nH]1 | i | 2.5
Cc1cc(NC(=O)c2cc3ccccc3o2)ccc1NC(=O)c1ccccc1 | i | 1.2
COc1ccc(C2C(C(=O)c3cccs3)=C(O)C(=O)N2c2nnc(C)s2)cc1OC (stereo not drawn) | i | 7.1
O=C(NCCc1ccccc1Cl)C1CC(=O)N(C2CCCCC2)C1 (stereo not drawn) | i | 0.94
COc1ccc(CCNCC(O)COc2c(C)cccc2C)cc1OC (stereo not drawn) | i | 2.1
COc1ccc(N2C(=O)CC(N3CCN(c4ccccc4)CC3)C2=O)cc1 (stereo not drawn) | i | 0.58
O=C(COC(=O)c1cncc(Br)c1)NCc1ccccc1 | i | 0.04
O=[N+]([O-])c1cc(S(=O)(=O)Nc2ccccc2)ccc1NCc1ccccc1 | i | 0.46
O=C(NC(=S)Nc1ccccc1N1CCOCC1)c1ccccc1F | i | 3
CC[n+]1c(/C=C/N(C)c2ccccc2)n(-c2ccccc2)c2ccc(-c3nc4ccccc4s3)cc21 | -16* | -2*
COc1ccc(Nc2nc(C)cc(C)c2C(N)=O)cc1OC | i | 0.27
COc1ccccc1NC(=O)Cn1cc(C(=O)c2ccco2)c2ccccc21 | i | -0.92
CN(Cc1ccccc1)S(=O)(=O)c1nnc(NC(=O)c2ccccc2)s1 | i | -2
COc1ccccc1C(CC(=O)Nc1nccs1)c1ccco1 (stereo not drawn) | i | -0.04
Clc1ccc(OCCn2cnc(Cl)c2Cl)cc1 | i | 0.04

Among those listed so far, 3 have four or more nitrogen atoms:
SMILES | KCNQ2 block | KCNQ2 block baseline
Cc1cccc(C(c2c(C)nn(-c3ccccc3)c2N)c2c(C)nn(-c3ccccc3)c2N)c1 | i | 0.93
CC[n+]1c(/C=C/N(C)c2ccccc2)n(-c2ccccc2)c2ccc(-c3nc4ccccc4s3)cc21 | -16* | -2*
CN(Cc1ccccc1)S(=O)(=O)c1nnc(NC(=O)c2ccccc2)s1 | i | -2

Following part.
SMILES | KCNQ2 block | KCNQ2 block baseline
Cn1cccc1Cc1nnc(SCC(=O)N2CCN(c3ccccc3)CC2)n1-c1ccc(F)cc1 | i | 0.64
CCOC(=O)c1c(C)[nH]c(C)c1-c1ccccc1OC | i | 0.13
COc1ccc(/C=N/NC(=O)CCc2c(C)n[nH]c2C)cc1O | i | 1.4
COc1ccc(C(=O)N2CCCC(Nc3ccc(C)c(C)c3)C2)cc1 (stereo not drawn) | i | -0.18
O=C1CCc2cc(S(=O)(=O)Nc3ccc(C(F)(F)F)cc3)cc3c2N1CC3 | i | 2.1
CC(C)CC(NC(=O)C1CCC(C)CC1)C(=O)Nc1cccnc1 (stereo not drawn) | i | 0.25
Cn1c(=O)c2c(nc(CN3CCc4ccccc4C3)n2CC(=O)c2ccccc2)n(C)c1=O | i | -0.02
O=C(NCCc1ccccc1)c1ccc(-c2ccccc2Cl)o1 | i | 0.52
COc1ccccc1C(=O)n1nc(-c2ccco2)nc1N | i | 0.26
O=C(NC1CCCCC1)N1CCCC(c2nc3ccccc3[nH]2)C1 (stereo not drawn) | i | -0.02
COc1cccc(CN2CCN(Cc3ccc(O)cc3)CC2CCO)c1 (stereo not drawn) | i | 0.53
Cc1occc1C(=O)NCc1ccccc1 | i | -2.3
CCSc1nc2ccccc2n1CC(N)=O | i | 1.6
COc1ccc(C2N(c3ccc4c(c3)OCCO4)C(=O)C2(F)F)cc1OC (stereo not drawn) | i | 1.3
COc1ccccc1N1CCN(C(=O)c2ccco2)CC1 | i | 0.61
CC(=O)c1cccc(NC(=O)N2CCCC2C(=O)NCc2ccc(C)cc2)c1 (stereo not drawn) | i | -0.27
COc1cccc(CN2CC(C(=O)NC3CCC(O)CC3)CCC2=O)c1 (stereo not drawn) | i | -1.2
C/C=C(/C)C(=O)Nc1cccc(C2=NOC3(C2)C[C@H](C(N)=O)N(C(=O)Cc2ccc([N+](=O)[O-])cc2)C3)c1 (stereo partly drawn) | i | 0.18
COc1ccc(-c2csc(NC(=O)CN3C(=O)C4CCCCC4C3=O)n2)c(OC)c1 (stereo not drawn) | i | 1.1
O=C(CN1C(=O)COc2ccccc21)N1CCN(C2CCCCC2)CC1 | i | -0.54
O=C(NCc1ccccc1)C1=C[C@H](c2ccc(Br)cc2)C[C@H](OCc2ccc(CO)cc2)O1 | i | -1.8
S=C(NCCN1CCOCC1)N/N=C/c1c2ccccc2cc2ccccc12 | i | -0.05
CCCCCCCCN1[C@@H](CC(=O)O)c2ccc(C(F)(F)F)cc2S1(=O)=O | i | -0.14
CC1Cc2ccccc2N1C(=O)COc1ccc2c(c1)OCO2 (stereo not drawn) | i | -0.11
N#CCc1c(C#N)c(N)nc(N2CCN(c3ccc(F)cc3)CC2)c1C#N | i | -0.82
O=C(COC(=O)c1ccccc1NCCO)NCCC1=CCCCC1 | i | -0.2
O=C(NC1CCCCCC1)c1cc2ccccc2oc1=O | i | -2.3
CCCCNCC1C(Oc2ccc(Cl)cc2)C(=O)N1c1ccccc1C (stereo not drawn) | i | -0.6
CCN1CCN(S(=O)(=O)c2ccc(OC)c(Br)c2)CC1 | i | 0.58
O=c1cc(-c2ccccc2Cl)oc2cccc(O)c12 | i | -0.13
C#CCNC(=O)C1=C[C@H](c2ccccc2)C[C@H](OCCCCO)O1 | i | -1.3
COCCNC(=O)C(=O)c1c(-c2ccccc2)[nH]c2ccccc12 | i | -0.52
Cn1nc([N+](=O)[O-])nc1Oc1ccc2ccccc2c1 | i | 0.28
CC(C)(C)c1ccc(OCCC(=O)NCCc2ccc(S(N)(=O)=O)cc2)cc1 | i | -1.5
O=[N+]([O-])c1ccc(Cl)c(-c2ccc(/C=N/n3cnnc3)o2)c1 | i | -1.7
O=C(NCC(c1ccc(F)cc1)N1CCOCC1)c1cccnc1Sc1ccc(Cl)cc1 (stereo not drawn) | i | 0.19
O=C(COC(=O)/C=C/c1ccc(Cl)cc1)NCCN1C(=O)CSC1=O | i | -0.67
COc1ccccc1Nc1nnc(SCC(=O)N2CCCC2=O)s1 | i | 0.19
O=C1CSC(c2ccc(Cl)cc2)N1c1cccnc1 (stereo not drawn) | i | 0.01
COc1ccccc1NC(=O)Nc1nn(C)c2cccc(OC)c12 | i | 2.3
COC(=O)c1cc(=O)n(CCc2ccc(OC)cc2)c(=Nc2ccc(F)c(Cl)c2)s1 | i | 0.42
CCn1c(-c2ccc(OC)c(OC)c2)n[nH]c1=S | i | -0.48
COCCn1c(-c2cccs2)csc1=Nc1cccnc1 | i | 0.27
CN(C(=O)COC(=O)C1COc2ccccc2O1)c1c(N)n(Cc2ccccc2)c(=O)[nH]c1=O (stereo not drawn) | i | -0.68
O=C(CNc1ccc2ccccc2c1)N/N=C/c1ccccn1 | i | 0.1
CC(Oc1ccc(F)cc1)C(=O)Nc1ccccc1C(=O)NC1CC1 (stereo not drawn) | i | -2.1
COc1ccc(CNC(=O)N2CCN(c3cccc(C)c3C)CC2)cc1OC | i | -0.87
Cc1ccc(N2CCN(C3=NC(=O)/C(=C\c4cccs4)S3)CC2)cc1 | i | -1.3
O=C(Nc1ccc(NC(=O)c2cccs2)cn1)c1ccccc1 | i | 0.76
O=C(CCNc1cccc(Cl)c1)c1ccco1 | i | 0.03
CCOCCn1c(CN2CCN(c3ccc(OC)cc3)CC2)nc2c1c(=O)n(C)c(=O)n2C | i | 1.8
Cc1cnc(C(=O)N2CCN(c3ccc(C(F)(F)F)cn3)CC2)cn1 | i | 0.62
Cc1c(NC(=O)c2c(NC(=O)CNC3CC3)sc3c2CCCC3)c(=O)n(-c2ccccc2)n1C | i | -1.7
CN(Cc1ccccc1)C(=O)c1ccccc1NC(=O)c1ccccc1 | i | -1.5
Cc1cccnc1Nc1nc(-c2ccccc2)cs1 | -7.8* | 0.17*
COc1cc2c(cc1OC)C(c1cc(OC)c(OC)c(OC)c1)NCC2 (stereo not drawn) | i | 0.64
CC(C)CCNC(=O)COc1ccc(N(C)S(=O)(=O)c2ccc(F)cc2)cc1 | i | -2
CCOC(=O)Nc1ccc2nc(Sc3ccc(Cl)cc3)sc2c1 | i | -1.2
COc1ccc(CCNC(=O)c2ccc(-c3cccc([N+](=O)[O-])c3)o2)cc1OC | i | -0.23
CCOc1ccc(N(C)S(=O)(=O)c2ccc3[nH]cc(C(=O)NCC(OC)OC)c(=O)c3c2)cc1 | i | 0.18

Structures from the list above with bromine, in the order listed:
SMILES | KCNQ2 block | KCNQ2 block baseline
O=C(COC(=O)c1cncc(Br)c1)NCc1ccccc1 | i | 0.04
O=C(NCc1ccccc1)C1=C[C@H](c2ccc(Br)cc2)C[C@H](OCc2ccc(CO)cc2)O1 | i | -1.8
CCN1CCN(S(=O)(=O)c2ccc(OC)c(Br)c2)CC1 | i | 0.58

Remaining list, next part
SMILES | KCNQ2 block | KCNQ2 block baseline
CC(C)(C)NC(=O)NC(=O)CN1CCN(S(=O)(=O)c2ccc3c(c2)CCCC3)CC1 | i | -1.5
Cc1cc2occ(CC(=O)NNC(=O)c3ccccc3)c2cc1C | i | 0.36
CCOC(=O)c1oc2c(CN3CCN(CCO)CC3)c(O)c(CC)cc2c(=O)c1-c1nc2ccccc2s1 | i | 1.9
O=[N+]([O-])c1cc(Cl)ccc1N1CCN(c2ccccc2O)CC1 | i | -2.4
O=[N+]([O-])c1cc(C=Nc2cccc3c(O)cccc23)ccc1Cl | i | -1.2
O=C1/C(=C\c2cccc(O)c2)SC(=S)N1Cc1ccccc1 | i | 0.68
CCOC(=O)c1ccc(Nc2ncnc3ccccc23)cc1 | i | -0.62
Cc1noc(C)c1COC(=O)c1ccc2c(c1)OCO2 | i | 0.43
CCOC(=O)CC1C(=O)NCCN1C(=O)NC1CCCCC1 (stereo not drawn) | i | 0.03
COc1cc2cc(C#N)c(SCC(=O)N3CCOCC3)nc2cc1OC | i | 1.4
COCc1cc(/C=N\NC(=O)Cc2ccc(OC)cc2)ccc1OC | i | 0.67
CCOC(=O)C1CCCN(S(=O)(=O)c2ccc(Br)s2)C1 (stereo not drawn) | i | -0.55
O=C(CCNS(=O)(=O)c1cccc2nonc12)NC1CCCCCC1 | i | 0.76
CC1CCN(CCCNC(=O)C2CCC(CNS(=O)(=O)c3cccc4nsnc34)CC2)CC1 (stereo not drawn) | i | 1.1
Cc1cc(NC(=O)CSc2nnc(C(C)N(C)C)n2-c2ccc(F)cc2)no1 (stereo not drawn) | i | 0.45
C=C(C)CNC(=S)N=Nc1c(O)[nH]c2ccc([N+](=O)[O-])cc12 | i | 0.32
O=c1c2c([nH]c3ccccc13)CCCCCC2 | i | 2.5
Cc1cc(CN2CCOCC2)c(O)c(C2(C)CCCCC2)c1 | -7.2* | 1.5*
CCc1sc(NC(=O)C(C)C)nc1-c1ccccc1 | i | -0.23
COc1ccccc1OCCNC(=O)c1ccc(C(C)(C)C)cc1 | i | 0.23

Continued; the last 2 above are carried over.
SMILES | KCNQ2 block | KCNQ2 block baseline
CCc1sc(NC(=O)C(C)C)nc1-c1ccccc1 | i | -0.23
COc1ccccc1OCCNC(=O)c1ccc(C(C)(C)C)cc1 | i | 0.23
Cc1ccc(C(=O)c2c(NC(=O)c3ccccc3)sc(C)c2C)cc1 | -7.5* | 0.55*
CCC(C)NC(=O)CSc1ccc(NC(C)=O)cc1 (stereo not drawn) | i | 0.58
Cn1c(-[n+]2c(-c3ccccc3)cc(-c3ccccc3)cc2-c2ccccc2)nc2cc([N+](=O)[O-])ccc21 | i | -0.66
Cc1ccc(-c2nn(-c3ccccc3)cc2CO)o1 | i | 0.22
O=C(NN1C(=O)C2C(C1=O)C1C=CC2C12CC2)c1ccccc1 (stereo not drawn) | i | 1.4
CCNC(=S)N/N=C(\C)c1ccco1 | i | 0.17
O=C(N1CCN(c2ccc(F)cc2)CC1)C12CC3CC(CC(C3)C1)C2 | i | -2.1
CC[C@H](C)[C@@H](CN[C@H](C)CNC)NCCC(c1ccccc1)c1ccccc1 | i | 1.2
Cc1n(CC(=O)c2ccc(F)cc2)c2ccccc2[n+]1C | i | 0.62
Cc1nc(NCCN2CCOCC2)c2nnn(Cc3ccccc3Cl)c2n1 | i | 1.4
COCCSc1nnc(NC(=O)CS(=O)(=O)c2ccccc2)s1 | i | -0.14
COc1ccc(CCNc2cc(C)nc3c(-c4ccccc4)c(C)nn23)cc1OC | i | 2.1
CCn1c(-c2cc(-c3cc(OC)ccc3OC)nc3ccccc23)n[nH]c1=S | i | 3.5
OCCC1CN(Cc2cnn(-c3ccccc3Cl)c2)CCN1Cc1ccsc1 (stereo not drawn) | i | 3.3
COc1ccc(S(=O)(=O)NCC2CCC(C(=O)NCc3ccc(F)cc3)CC2)cc1 (stereo not drawn) | i | 2.1
COc1cc(/C=N/n2c(C)nnc2C)cc(OC)c1OC | i | 0.13
O=C(NC(=S)NCc1ccccc1)c1cccc([N+](=O)[O-])c1 | i | 0.88

Source: PubChem (Johns Hopkins Ion Channel Center)

An excerpt. The share of hits here may be higher or lower than overall.
